Compound activity as filed in PubChem BioAssay.
AmpC inh no det – inhibitors of E. coli AmpC beta-lactamase without detergent; P00811; AmpC nitrocefin hydrolysis, absorbance 480 nm, no detergent; potencies from a single point are estimates; Potency, µM (series often up to 28.7 µM), for inactives: at the top dose activity change, negative = inhibition; 71,000 tested, 1.8% active; AID 585; active = falling curve, for most hits resting on a single point; inconclusive = weak or doubtful change; inactive = flat or rising curve; also: % of control where 0% means no effect; about half of the hits show no inhibition at the top dose; a quarter of the inactives give rising signals
Target sequence (P00811 whole entry, looked up): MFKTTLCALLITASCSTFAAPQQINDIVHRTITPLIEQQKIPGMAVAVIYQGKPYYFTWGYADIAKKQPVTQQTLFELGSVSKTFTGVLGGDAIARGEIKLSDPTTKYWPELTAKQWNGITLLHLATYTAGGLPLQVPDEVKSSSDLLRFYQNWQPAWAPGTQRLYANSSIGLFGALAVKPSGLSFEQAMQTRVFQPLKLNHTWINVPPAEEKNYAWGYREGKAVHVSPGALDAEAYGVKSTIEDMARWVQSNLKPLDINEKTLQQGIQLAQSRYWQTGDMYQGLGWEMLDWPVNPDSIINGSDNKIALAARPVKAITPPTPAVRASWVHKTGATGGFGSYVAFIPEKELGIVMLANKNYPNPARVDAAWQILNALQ
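AmpC in 20 mM phosphate buffer pH 7.0 was preincubated 15 min at room temperature with compounds. Nitrocefin (800 uM stock) was then added and hydrolysis followed at 480 nm every 20 s for 4 min.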
Numbers without * were called inactive; ? = inconclusive; [ ] = another dose, or the depositor's remark. Potency is read from the fitted curve at half-maximal effect. Not all compounds are listed. The share of hits here may be higher or lower than overall.

A first look:
| mol | AmpC inh no det |
| --- | --- |
| COCC(C)NC(=O)CCS(=O)(=O)c1nc(-c2ccc(OC)cc2)cc(C(F)(F)F)n1 (stereo not drawn) | 50% |
| NC(=O)c1cccc(S(=O)(=O)N2CCCCC2)c1 | -6% |
| Cc1nn(C(C)C(=O)N2CCc3ccccc3C2)c(=O)c2cc3occc3n12 (stereo not drawn) | 30% |

All compounds of this part, previewed entries included:
| mol | AmpC inh no det |
| --- | --- |
| COCC(C)NC(=O)CCS(=O)(=O)c1nc(-c2ccc(OC)cc2)cc(C(F)(F)F)n1 (stereo not drawn) | 50% |
| NC(=O)c1cccc(S(=O)(=O)N2CCCCC2)c1 | -6% |
| Cc1nn(C(C)C(=O)N2CCc3ccccc3C2)c(=O)c2cc3occc3n12 (stereo not drawn) | 30% |
| CCOC(=O)CCNC(=O)Nc1ccc2nc(C)n(Cc3ccc(Cl)cc3)c(=O)c2c1 | 80% |
| COc1ccc(Cc2nc(-c3ccc(Cl)cc3)no2)cc1 | -11% |
| COc1cc(C(=O)O)cc(Br)c1OC1CCCC1 | 1% |
| O=C(NCc1ccc2c(c1)OCO2)c1cccc(S(=O)(=O)N2CCCCC2)c1 | -13% |
| COc1cc(C(=O)N2CCN(c3cccc(C)c3C)CC2)cc(OC)c1OC | 149% |
| CN(C(=O)c1ccc2c(c1)OCO2)C1(C(=O)NC2CCCCC2)CCCCC1 | 10% |
| CCCCOc1ccccc1C1C(C(N)=O)=C(C)Nc2nnnn21 (stereo not drawn) | -3% |
| Fc1ccc(CSc2ncnc3c2oc2ccccc23)cc1 | 7% |
| CCCCC(=O)NC1(C(F)(F)F)C(=O)Nc2c1c(=O)n(C)c(=O)n2C (stereo not drawn) | -9% |
| CC(C)CCNC(=O)CN(C(=O)CCC(=O)Nc1ccccn1)c1ccc2c(c1)OCO2 | 59% |
| Cc1ccc(NC(=O)Cn2nnc(C(=O)NCc3cccs3)c2N)cc1 | ? |
| O=C(COC(=O)Cc1ccc(S(=O)(=O)N2CCCCC2)s1)Nc1ccc2c(c1)OCO2 | 13µM* |
| CCc1ccc(CNCc2cccnc2)cc1 | 20% |
| CCOc1ccccc1N(C(=O)Cn1nnnc1-c1ccc(C)o1)C(CC)C(=O)NC(C)(C)C (stereo not drawn) | 91% |
| CC1CCCCC1NC(=O)Cn1nc(-c2ccccc2)ccc1=O (stereo not drawn) | -2% |
| O=C(c1nc2ncccn2n1)N1CCN(c2ccccc2)CC1 | 7% |
| Cn1c2ccc(CC(=O)O)cc2c2cc(CC(=O)O)ccc21 | -9% |
| Fc1ccc(-c2cc(C(F)(F)F)nc(NCC3CCCO3)n2)cc1 (stereo not drawn) | 57% |
| CCOC(=O)c1cnc(-n2nc(C)cc2C)nc1Nc1ccc2c(c1)OCO2 | 57% |
| Cc1ccnc(NS(=O)(=O)c2ccc(N=CC3=C(O)CC(C)(C)CC3=O)cc2)n1 | -6% |
| O=C1CC(c2ccc(S(=O)(=O)NC3CC3)cc2)CN1 (stereo not drawn) | 4µM*[single pt active] |
| COc1ccc(C)cc1NC(=O)c1nnn(Cc2cc(C)ccc2C)c1N | 4µM*[single pt active] |
| CN(C)C(=O)CSc1nnc([C@H](Cc2c[nH]c3ccccc23)NC(=O)OC(C)(C)C)o1 | 83% |
| COc1ccc(-c2nnc(SCC(=O)Nc3cc(C)on3)n2C)cc1OC | -1% |
| Cn1c(-c2ccc(C(=O)c3ccccc3)s2)nc2ccccc21 | -21% |
| CCOC(=O)N1CCC(NC(=O)CSc2cc(=O)n(CC)c3ccccc23)CC1 | 72% |
| O=C(c1ccco1)N1CCN(C(=O)c2cnn3c2NC(c2cccs2)CC3C(F)(F)F)CC1 (stereo not drawn) | 97% |

(list continues)
| mol | AmpC inh no det |
| --- | --- |
| COc1cc2c(c(OC)c1OC)-c1ccc(OC)c(=O)cc1[C@H](NC(C)=O)CC2 | 3% |
| COc1cccc(C(=O)CSc2nnc(CNS(C)(=O)=O)n2-c2ccc(C)cc2)c1 | 126% |
| O=C1c2ccccc2C(=O)N1SC1CCCCC1 | 4% |
| COc1cccc(C2/C(=C(/O)c3ccncc3)C(=O)C(=O)N2CCCN2CCOCC2)c1OC (stereo not drawn) | -6% |
| O=C(NCCCNC(=O)c1ccco1)c1ccco1 | -5% |
| CCN1CCN(Cc2nc3c(c(=O)n(C)c(=O)n3C)n2CCc2ccccc2)CC1 | 4% |
| CC(=O)CC(=O)Nc1ccccc1NC(C)=O | -2% |
| Cc1nn2c3ccccc3nc2n(C)c1=O | 4% |
| NS(=O)(=O)c1ccc(CCNc2cc(=O)n(Cc3ccc(F)cc3)c(=O)[nH]2)cc1 | ? |
| CC(C)N1CCC2(CC1)N=C(c1ccc3c(c1)OCO3)CC(c1cc(Cl)ccc1O)N2 (stereo not drawn) | 58% |
| O=C(O)CN(CCN(CC(=O)O)CC(=O)O)CC(=O)O.[Cu] | -3%[5.75 µM] |
| O=C(Cn1c(NCCCO)nc2ccccc21)c1cccc(Br)c1 | -2% |
| CCCN1C[C@H](CSC)C[C@H]2c3cccc4[nH]cc(c34)C[C@@H]21 | 3% |
| COc1ccccc1C(c1nnnn1CCc1ccccc1)N1CCN(c2ccccc2)CC1 (stereo not drawn) | 27% |
| Cc1ccc(S(=O)(=O)/C=C\C#N)cc1 | -3% |
| CC(=O)C1=C(C)NC(=O)NC1c1ccc(OC2CCCC2)cc1 (stereo not drawn) | 8% |
| CC(C)c1ccc(CNc2ccc(N3CCOCC3)cc2)cc1 | 117% |
| O=C(NCCCNC(=O)c1ccccn1)c1ccccn1 | -9% |
| O=C(NC1CCN(Cc2ccccc2)CC1)C1CCN(S(=O)(=O)c2cccc3cccnc23)CC1 | 15% |
| COc1cccc(-c2nc(CSCC(=O)N3CCc4ccccc43)c(C)o2)c1 | 75% |
| Cc1cc(C)n2nc(SCC(=O)N(C)c3ccccc3)nc2n1 | 19% |
| CCC(C)NC(=O)C1CCN(c2nc(C)cc(C)n2)CC1 (stereo not drawn) | 5% |
| CCOC(=O)Cc1csc(NC(=O)c2ccc(C)o2)n1 | -3% |
| COc1ccc(-c2nc(C(N)=O)c3[nH]c(=O)n(-c4cccc(Cl)c4)c3n2)cc1OC | 76% |
| CN1CCc2c(cc(O)c(O)c2Cl)[C@H](c2cccc(Cl)c2)C1 | 3% |
| COc1ccc2[nH]c3c(=O)n(CCCCC(=O)N4CCCC4)c(=S)[nH]c3c2c1 | -1% |
| O=C(NCCN1CCOCC1)c1cc(-c2ccc(Br)cc2)on1 | 56% |
| Nc1ncnc2c1ncn2[C@@H]1O[C@H](COP(=O)(O)O)[C@@H](O)[C@@H]1O | -1%[12.8 µM] |
| CC1=C(C(=O)OC(C)C)C(c2cccs2)N2C(=O)C(C)SC2=N1 (stereo not drawn) | 26% |
| O=C(CN1CCN(Cc2ccccc2)CC1)N1CCCc2c1c(=O)oc1ccc(O)cc21 | 0% |

Remaining list, next part
| mol | AmpC inh no det |
| --- | --- |
| COC(=O)C1=C(C)NC2=C(C(=O)CCC2)C1c1ccsc1 (stereo not drawn) | -5% |
| O=C(c1ccco1)N(c1ccccn1)c1ccccn1 | 7% |
| C/C(=C\c1ccco1)C1Nc2cccc3cccc(c23)N1 | ? |
| O=C(c1cnccn1)N1CCC[C@@]2(CCN(c3ccncc3)C2)C1 | 8% |
| Cc1cc(NS(=O)(=O)c2ccc(NC(=O)C(C)Oc3ccc4c(C)cc(=O)oc4c3)cc2)no1 (stereo not drawn) | ? |
| COC(=O)Cn1cnc2sc(C)c(S(=O)(=O)N3CCC(C)CC3)c2c1=O | 8% |
| COc1ccc(OC)c(NC(=O)C2CCN(S(C)(=O)=O)CC2)c1 | 6% |
| CC1=C(C(=O)NCc2ccccn2)C2(CCC(C)CC2)OC1=O (stereo not drawn) | 6% |
| O=C(c1cccc(F)c1)N1CCC2(CC1)CN(c1ccccc1)C2 | 20% |
| COc1ccccc1N1CCN(C(c2cccs2)c2nnnn2C2CCCC2)CC1 (stereo not drawn) | 94% |
| CC(NS(C)(=O)=O)C(c1cccs1)N1CCN(c2ccccc2F)CC1 (stereo not drawn) | 36% |
| Cc1ccc(S(=O)c2ccc(C)cc2)cc1 | 13% |
| CSc1nc2c(ccc3ccccc32)o1 | 1% |
| N#CCCn1c(=O)c(-c2ccc(Cl)cc2)nc2cnc(Nc3ccccc3)nc21 | -12% |
| COc1ccc(C(=O)N(Cc2nc(-c3ccc(C)cc3)no2)C2CCCCC2)cc1OC | 99% |
| O=C(c1ccc(S(=O)(=O)N2CCC(c3nc4ccccc4[nH]3)CC2)cc1)N1CCOCC1 | 40% |
| CCOc1ccc(-c2cc(CCCC(=O)N3CCN(c4ccc(OC)cc4)CC3)no2)cc1 | 66% |
| COc1ccc2nc(SCc3cnc(C)nc3N)[nH]c2c1 | -7% |
| CCOC(=O)CN1CC23C=CC(O2)C(C(=O)NCc2ccccc2OC)C3C1=O (stereo not drawn) | 6% |
| CC(O)Cc1nsc(NC(=O)c2cccs2)n1 (stereo not drawn) | 4µM*[single pt active] |

4 of the compounds above, with each value named:
compound: Cc1ccc(S(=O)c2ccc(C)cc2)cc1
  AmpC inh no det: 13%
compound: CSc1nc2c(ccc3ccccc32)o1
  AmpC inh no det: 1%
compound: N#CCCn1c(=O)c(-c2ccc(Cl)cc2)nc2cnc(Nc3ccccc3)nc21
  AmpC inh no det: -12%
compound: COc1ccc(C(=O)N(Cc2nc(-c3ccc(C)cc3)no2)C2CCCCC2)cc1OC
  AmpC inh no det: 99%

Arranged by length of the SMILES (high to low): part of the list above
| mol | AmpC inh no det |
| --- | --- |
| N#CCCn1c(=O)c(-c2ccc(Cl)cc2)nc2cnc(Nc3ccccc3)nc21 | -12% |
| COC(=O)Cn1cnc2sc(C)c(S(=O)(=O)N3CCC(C)CC3)c2c1=O | 8% |
| COc1ccccc1N1CCN(C(c2cccs2)c2nnnn2C2CCCC2)CC1 (stereo not drawn) | 94% |
